Assay outcomes deposited in PubChem by National Center for Advancing Translational Sciences (NCATS).
VDR inh = inhibitors of human vitamin D receptor | P11473 | VDR-SRC2-3 peptide fluorescence polarization, 2 h | Potency, µM, inactives show max response, negative = inhibition, usual class: inhibitors | 400,000 compounds, 0.93% hits; active means well fitted inhibition curve with a large enough effect; inconclusive means small, poorly fitted or top-dose-only effect, or another doubt; inactive means no such curve, though single readings can be large or run the other way; further: series mostly up to about 120 µM
Target sequence (P11473 whole entry, looked up): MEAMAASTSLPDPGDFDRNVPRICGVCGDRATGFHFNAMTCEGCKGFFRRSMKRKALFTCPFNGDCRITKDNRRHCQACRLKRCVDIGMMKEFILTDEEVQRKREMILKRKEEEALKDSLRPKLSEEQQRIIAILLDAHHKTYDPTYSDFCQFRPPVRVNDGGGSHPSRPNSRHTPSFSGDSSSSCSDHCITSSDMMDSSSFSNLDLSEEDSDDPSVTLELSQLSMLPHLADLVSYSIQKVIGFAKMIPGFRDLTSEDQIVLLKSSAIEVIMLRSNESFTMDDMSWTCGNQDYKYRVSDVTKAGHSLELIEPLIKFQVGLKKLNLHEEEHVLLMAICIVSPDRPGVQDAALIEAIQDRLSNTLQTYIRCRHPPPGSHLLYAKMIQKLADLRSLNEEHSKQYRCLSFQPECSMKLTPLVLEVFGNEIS
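Inhibition of the VDR/SRC2-3 peptide interaction is quantified by fluorescence polarization. Compounds (23 nl, pintool) incubate with the reagents for 2 hours at ambient room temperature.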
Active calls of the source: *; & = joins results of further samples. On the % scale 0 is the no-effect control and ±100 the full control effect; potency means the concentration at half of the fitted maximal effect. Some of the compounds tested; the hit share may differ from the screen's.

`Cc1nccn1-c1ncnc2sc3c(c12)CCCC3` gave VDR inh 13%.
`O=C(NCCNC(=O)c1ccco1)c1ccc(F)cc1` gave VDR inh 11%.
Screening CCCCOC(=O)c1cc(Cl)c(O)c(OC)c1 returned VDR inh 1%.
For CCOc1cccc(C(=O)NCc2ccccc2)c1 the results were VDR inh 5%.
`CC(C)CCNC(=O)CN(C(=O)Cn1nnc(-c2ccc(F)cc2)n1)C1CCCC1` gave VDR inh 9%.
CCNC(=O)NC(=O)COC(=O)CCCSc1nc2ccccc2s1 was read as VDR inh -4%.
O=C(CCc1ccccc1)N/N=C\C1CC=CCC1 (stereo unspecified) was read as VDR inh -9%.
For CCN(CC)c1ccc(/C=N/NC(=O)c2cccc(S(=O)(=O)N3CCOCC3)c2)c(O)c1 the results were VDR inh 0%.
`CN1C=CC=C/C1=C1/SC(=S)N(Cc2ccccc2)C1=O` gave VDR inh -3%.
Cc1ccc(NC(=O)C(=O)NCC(c2cccnc2)N2CCN(Cc3ccccc3)CC2)cc1 (stereo unspecified) was read as VDR inh 4%.
`O=C1NCCN1Cc1cccc(Cl)c1` gave VDR inh -10%.
`CCc1ccc(-n2nc(C)c3c(C)cc(=O)n(CC(=O)Nc4ccc(OC)c(OC)c4)c32)cc1` gave VDR inh 8%.
Screening c1ccc(Nc2c3c(nc4ccccc24)CCC3)cc1 returned VDR inh -1%.
`Cc1c(C(=O)Nc2nonc2-c2ccc(F)cc2)oc2ccc(F)cc12` gave VDR inh inconclusive.
For Cc1coc2c(C)c3oc(=O)c(CCC(=O)NCc4ccccn4)c(C)c3cc12 the results were VDR inh -12%.
For CCOC(=O)c1c(NC(=O)COC(=O)c2cnc(C)cn2)sc(C(=O)N(C)C)c1C the results were VDR inh inconclusive.
Screening O=C(Nc1ccncc1)c1ccc(C(=O)Nc2ccncc2)cc1 returned VDR inh 4%.
`O=C(N/N=C/c1cccnc1)c1ccc(NC(=O)c2cccc(Cl)c2)cc1` gave VDR inh 9%.
Screening O=C(NCCS(=O)(=O)N1CCN(c2ccccc2)CC1)C1CC(=O)N(c2ccccc2)C1 (stereo unspecified) returned VDR inh 0%&9%.
Screening CC1=C(C(=O)N2CCOCC2)C(c2cc(C)ccc2C)NC(=S)N1 (stereo unspecified) returned VDR inh 9%.
COc1ccc(NC(=O)C(F)(OC)C(F)(F)F)c(OC)c1 (stereo unspecified) was read as VDR inh 10%.
Screening C=CCCCN(Cc1ccccc1)S(=O)(=O)c1ccccc1Br returned VDR inh -2%&-17%.
CCc1nnc(NC(=O)CSc2nc(C)cs2)s1 was read as VDR inh -6%.
CCOC(=O)C1CCC(CN(Cc2ccc(OC)cc2)S(=O)(=O)c2ccc(F)c(C(=O)Nc3ccc(C)c(C)c3)c2)CC1 (stereo unspecified) was read as VDR inh 18%.
`Cc1ccc(NC(=O)c2ccc([N+](=O)[O-])o2)cc1C` gave VDR inh 4%.
Screening O=c1[nH]c(SCc2ccccc2Cl)nc2c1cnn2-c1ccccc1 returned VDR inh -14%.
CCOC(=O)Cn1c(=O)oc2cc(S(=O)(=O)N(C)c3ccc(OC)cc3)ccc21 was read as VDR inh 9%.
For COc1ccc(CNC(=O)c2ccc(CS(=O)Cc3ccccc3Cl)o2)cc1 (stereo unspecified) the results were VDR inh 13%.
For C=CCCC(=O)N1CCC(n2nccc2NC(=O)c2ccccc2C)CC1 the results were VDR inh -7%.
Screening CC(/C=C/c1ccccc1)=N/NC(=O)CNC(=O)c1ccccc1F returned VDR inh -6%.

Not a retest: an excerpt of the list.
For CCOC(=O)c1c(NC(=O)COC(=O)c2cnc(C)cn2)sc(C(=O)N(C)C)c1C the results were VDR inh inconclusive.
Screening O=C(Nc1ccncc1)c1ccc(C(=O)Nc2ccncc2)cc1 returned VDR inh 4%.

Next entries follow:
For CCOCCCn1c(SCC(=O)Nc2cccc(S(=O)(=O)NC3=NCCCCC3)c2)nc2ccccc2c1=O the results were VDR inh 7%.
O=c1c(-c2ccc(O)cc2O)coc2cc(O)cc(O)c12 was read as VDR inh 2%.
For CCn1c2ccccc2c2cc(NC(=O)COC(=O)c3ccccc3F)ccc21 the results were VDR inh -16%.
CC1Cc2ccccc2N1C(=O)CSc1nc2ccccc2s1 (stereo unspecified) was read as VDR inh -16%.
`CCOc1cccc2c1N[C@@H](c1ccc(C(=O)O)cc1)[C@H]1CC=C[C@@H]21` gave VDR inh inconclusive.
For CCOc1ccc(OCCN2CCCCC2)cc1 the results were VDR inh -10%.
For CCOC(=O)[C@@H]1[C@H]2COc3cc(OC)ccc3[C@@H]2N2C(=O)N(c3cccc(Cl)c3)C(=O)[C@]12C the results were VDR inh -5%.
`COc1ccccc1-n1c(SCC(=O)NC2CC2)nc2ccccc2c1=O` gave VDR inh 10%.
For CCCC(=O)Nc1ccc(C2C(=O)c3ccccc3C2=O)cc1 the results were VDR inh -16%.
Cc1cc(NC(=O)CSc2nc(C3CC3)nc3sc(C)c(C)c23)no1 was read as VDR inh 18%.
`CC(C)CC(NC(=O)C1CCCCC1)C(=O)N1CCN(c2ccccn2)CC1` (stereo unspecified) gave VDR inh 3%.
`COc1cc(O)c(C(CCN2CCCC(C)C2)c2ccc3c(c2)OCO3)c(OC)c1` (stereo unspecified) gave VDR inh -11%&-24%.
For Cc1cc(C)c2c(c1)C(=O)/C(=C/c1ccc(C(=O)O)cc1)CC2 the results were VDR inh -28%.
`CC(C)CNc1nc(Oc2ccc(=O)[nH]n2)nc(N2CCOCC2)n1` gave VDR inh 6%.
For O=C(NCCCN1CCCC1=O)c1ccc(NS(=O)(=O)c2ccc(F)cc2)cc1 the results were VDR inh 2%.
For COC(=O)Cn1cc([N+](=O)[O-])nc1C the results were VDR inh -15%.
COc1ccccc1NC(=O)c1ccc(S(=O)(=O)N(C)c2ccccc2)cc1 was read as VDR inh 5%.
NC(=O)c1ccc(NC(=O)CN2CCN(S(=O)(=O)c3ccc4ccccc4c3)CC2)cc1 was read as VDR inh 12%.
Screening N/C(=N\NC(=O)c1cccs1)c1cc2cc(Cl)ccc2oc1=O returned VDR inh -30%.
For CC(=O)Nc1nc(SCc2cccc3ccccc23)n[nH]1 the results were VDR inh 7%.
COc1ccc(-c2cc(C(=O)Nc3c(C)n(C)n(-c4ccccc4)c3=O)no2)cc1 was read as VDR inh 4%&-2%.
Nc1nnc(CCOc2ccc(Cl)cc2)s1 was read as VDR inh -9%.
For CCOC(=O)C1=C(C)N(CCC(=O)O)C(=O)NC1c1ccccc1Cl (stereo unspecified) the results were VDR inh -9%.
Screening CSc1ccc(C2c3c(oc4cc(C)cc(C)c4c3=O)C(=O)N2Cc2ccco2)cc1 (stereo unspecified) returned VDR inh 5%.
For O=C(NC(C(=O)N/N=C/c1cc([N+](=O)[O-])ccc1O)c1n[nH]c(=O)c2ccccc12)c1ccccc1 (stereo unspecified) the results were VDR inh 5%.
For N#Cc1c(NC(=O)c2ccc(Cn3cc(Br)cn3)o2)sc2c1CCCCCC2 the results were VDR inh -24%.
COCCN(CC(=O)Nc1cccc(C)c1)S(=O)(=O)c1ccc(S(=O)(=O)N2CCCC2)cc1 was read as VDR inh -1%.
O=C(CSc1nnc(NC(=O)C2CC2)s1)NCc1ccco1 was read as VDR inh -8%.
For COC(=O)CSC(C(=O)Nc1ccc(C)c(C)c1)c1ccccc1 (stereo unspecified) the results were VDR inh 2%.
Cc1ccc2c(c1)C(=O)C(=O)N2CC(=O)Nc1ccccc1NC(=O)c1ccccn1 was read as VDR inh 5%.

In the list so far, 4 have an NH in an aromatic ring:
Screening O=c1[nH]c(SCc2ccccc2Cl)nc2c1cnn2-c1ccccc1 returned VDR inh -14%.
`CC(C)CNc1nc(Oc2ccc(=O)[nH]n2)nc(N2CCOCC2)n1` gave VDR inh 6%.
For CC(=O)Nc1nc(SCc2cccc3ccccc23)n[nH]1 the results were VDR inh 7%.
For O=C(NC(C(=O)N/N=C/c1cc([N+](=O)[O-])ccc1O)c1n[nH]c(=O)c2ccccc12)c1ccccc1 (stereo unspecified) the results were VDR inh 5%.

Back to the main list with the four entries that preceded the break.
COCCN(CC(=O)Nc1cccc(C)c1)S(=O)(=O)c1ccc(S(=O)(=O)N2CCCC2)cc1 was read as VDR inh -1%.
O=C(CSc1nnc(NC(=O)C2CC2)s1)NCc1ccco1 was read as VDR inh -8%.
For COC(=O)CSC(C(=O)Nc1ccc(C)c(C)c1)c1ccccc1 (stereo unspecified) the results were VDR inh 2%.
Cc1ccc2c(c1)C(=O)C(=O)N2CC(=O)Nc1ccccc1NC(=O)c1ccccn1 was read as VDR inh 5%.
`O=C(Oc1ccc(-c2ccccc2)cc1)N1CCCCC1` gave VDR inh 3%.
For CCN1CCN(C(c2cccs2)C(C)NC(=O)c2cccc(OC)c2OC)CC1 (stereo unspecified) the results were VDR inh -1%.
`CCCCOc1ccc(C(=O)N(C)CC(=O)Nc2ccc(C)cc2)cc1` gave VDR inh -11%.
CCN(Cc1nc2ccccc2c(=O)[nH]1)Cc1cc(=O)oc2cc(C)c(C)cc12 was read as VDR inh -10%.
N/C(COc1ccc(C(=O)O)cc1)=N\O was read as VDR inh -4%.
Screening Cc1cc(OCCN2CCOCC2)ccc1[N+](=O)[O-] returned VDR inh -20%.
Screening COc1ccc(CN2CCN(CCc3ccccc3)C(CCO)C2)cc1Cn1cncn1 (stereo unspecified) returned VDR inh 8%.
For Cc1cccc(Cc2c(C)[nH]c(=O)c(C#N)c2C)c1 the results were VDR inh -11%.
Screening CC(C(=O)N1CCc2ccccc21)N(C)CC(=O)Nc1ccc(F)cc1 (stereo unspecified) returned VDR inh 4%.
Screening O=C(Nc1c(C(=O)c2ccccc2)oc2ccccc12)c1cc(=O)c2ccccc2o1 returned VDR inh 16%.
For O=C(c1ccc([N+](=O)[O-])cc1)N1CCN(C(=O)c2cccnc2)CC1 the results were VDR inh 1%.
CSCCC(NC(=O)COc1ccccc1)C(=O)OCCOc1ccc(F)cc1 (stereo unspecified) was read as VDR inh inconclusive.
`CCc1ccc(OCC(=O)N(Cc2cccs2)c2ccc(Cl)cc2)cc1` gave VDR inh 5%.
For Cc1noc(C)c1S(=O)(=O)N(C)CC(=O)NCc1ccccc1 the results were VDR inh -5%.
Screening O=C(Cn1ncn2c(cc3sccc32)c1=O)NC1CCCC1 returned VDR inh -19%.
`Cc1cccc(OCCCSc2nc(-c3ccc(C(C)(C)C)cc3)nc3cc(=O)[nH]n23)c1C` gave VDR inh 12%.
CCn1c(C(=O)O)c(CC(=O)Nc2cccc(C(F)(F)F)c2)c2ccccc21 was read as VDR inh -5%.
`CCOC(=O)c1cc(-c2ccc(OC)cc2)n(CCC(=O)Nc2nc3ccc(OCC)cc3s2)c1C` gave VDR inh 12%.
For COCC(C)N1CCC(Oc2ccc(C(=O)N3CCCC3)cc2)CC1 (stereo unspecified) the results were VDR inh 4%.
Screening CCOC(=O)c1c(N)sc(C(O)(C(F)(F)F)C(F)(F)F)c1-c1ccc(Cl)cc1 returned VDR inh -21%.
For CCc1ccc(OCC(=O)NC(Cc2c[nH]c3ccccc23)C(=O)O)cc1 (stereo unspecified) the results were VDR inh -16%.
Cc1ccc(NC(=O)C(=O)NCCN2CCN(S(C)(=O)=O)CC2)cc1C was read as VDR inh 15%.
Screening COc1ccc(C(=O)Nc2nnc(-c3ccco3)s2)cc1 returned VDR inh 0%.
`Cc1ccc(CNC(=O)CCS(=O)(=O)c2cc3c4c(c2)CCN4C(=O)CC3)cc1` gave VDR inh 6%.
Screening CS(=O)(=O)c1ccccc1-c1nnc(NC(=O)c2cccc(N3C(=O)CCC3=O)c2)o1 returned VDR inh -5%.
For COCCNC(=O)/C(C#N)=C/c1ccc(OCC(=O)NC2CCCCC2)cc1 the results were VDR inh -16%.
Screening Cc1nc2ccccn2c1/C(O)=C1\C(=O)C(=O)N(CCN2CCOCC2)C1c1cccs1 (stereo unspecified) returned VDR inh -1%.
Screening CCOc1ncccc1C(=O)OCC(=O)c1ccc(Br)s1 returned VDR inh -8%.
For COc1ccc(/C=C2/C(=O)N=C3SCCN32)cc1 the results were VDR inh -14%.
Screening COc1ccc(-c2ccc3oc(-c4ccc(OC)cc4)c(-c4cc(OC)c(OC)c(OC)c4)c3c2)cc1 returned VDR inh -17%.
Cc1ccc2nc(SCC(=O)Nc3ccc(C)c([N+](=O)[O-])c3)[nH]c2c1 was read as VDR inh -10%.
Cc1cc(C(=O)N2CCCC(N3CCN(c4cccc(Cl)c4)CC3)C2)no1 (stereo unspecified) was read as VDR inh -4%.
`Cc1nonc1OCCn1c([N+](=O)[O-])cnc1C` gave VDR inh -5%.
For COc1ccc(S(=O)(=O)Nc2ccc(NC(C)=O)cc2)cc1[N+](=O)[O-] the results were VDR inh -6%.
`CC(C)N1C(=O)CC(Nc2ccc(N3CCOCC3)cc2)C1=O` (stereo unspecified) gave VDR inh 6%.
Screening CCOC(=O)c1c(C)[nH]c(C)c1C(=O)CSc1nnc(-c2ccncc2)n1Cc1ccccc1 returned VDR inh 11%.
For O=C(CN1CCOCC1)N/N=C/c1c(O)ccc2ccccc12 the results were VDR inh -23%.
For O=C(Nc1ccccc1)/C(=C/c1ccc([N+](=O)[O-])cc1)NC(=O)c1ccco1 the results were VDR inh -3%.
